FGF22 binding: FGF22 (human) thermal shift binding. Q9HCT0. recombinant FGF22 thermal shift, SYPRO orange fluorescence; percent of sucrose octasulfate shift, DMSO zero. calls only at 9.99 µM. hit rate 1.5% among 340,000. AID 651658;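 active means melting point raised past a set limit in the mean and every replicate; inconclusive means no clear call; three in four hits are not shown here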
Target sequence (Q9HCT0 whole entry, looked up): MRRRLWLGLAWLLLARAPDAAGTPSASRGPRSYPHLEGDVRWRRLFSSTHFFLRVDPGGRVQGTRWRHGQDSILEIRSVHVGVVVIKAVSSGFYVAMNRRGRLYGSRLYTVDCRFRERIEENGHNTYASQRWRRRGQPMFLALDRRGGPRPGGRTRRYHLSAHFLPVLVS
Beta2AR agonist: agonists of human beta-2 adrenergic receptor inducing internalization | AID 504454 | response, % (concentration not given with the values) | Am2.2-beta2AR cells, FAP receptor internalization, flow cytometry; reference of the scale not given here | P07550 | hit rate 0.43% among 340,000;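 active means response above a set limit, near 3 SD of response in nonfluorescent compounds, cut at about 42% in these data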;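 further: stock transfer was 100 nL into about 11 µL; a reference agonist was the positive control; negative values mostly stem from fluorescent compounds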
Target sequence (P07550 whole entry, looked up): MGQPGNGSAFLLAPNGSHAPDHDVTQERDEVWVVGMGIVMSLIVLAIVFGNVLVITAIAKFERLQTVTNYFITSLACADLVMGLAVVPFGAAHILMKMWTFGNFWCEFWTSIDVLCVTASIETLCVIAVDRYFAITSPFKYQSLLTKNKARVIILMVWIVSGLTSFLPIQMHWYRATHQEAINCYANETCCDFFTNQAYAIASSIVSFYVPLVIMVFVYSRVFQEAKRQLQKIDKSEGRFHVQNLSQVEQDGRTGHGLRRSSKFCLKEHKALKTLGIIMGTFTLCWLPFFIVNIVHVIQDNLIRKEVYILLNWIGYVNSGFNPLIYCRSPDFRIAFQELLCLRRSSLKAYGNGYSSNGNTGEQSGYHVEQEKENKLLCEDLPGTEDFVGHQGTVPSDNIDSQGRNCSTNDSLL
HNF4A DNA FP: change in binding of human HNF4 alpha to DNA; HNF4a-FITC DNA binding, fluorescence polarization, 1 h; P41235; AID 1224865; hit rate 0.3% among 360,000; activity change, % at 10 µM; in the data active means activity change above about 30%, passing the limit was not always enough;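 further: controls were the assay level and a saturating level of protein; the project sought stronger binding though the title names inhibitors; some compounds called inactive have numbers as strong as hits; positive values seem to mean higher polarization but the record does not say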
Ecoli rRNA inh: inhibitors of bacterial rRNA selective over humanized ribosomes | E. coli WT GFP vs humanized-ribosome RFP mutants, fluorescence, 24 h; hits give low values; DMSO median 0, no signal -100 | hit rate 1.6% among 350,000 | AID 720706 | GFP signal change (wild-type ribosome), % (concentration not given with the values);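 active means significant combined selectivity score with lowered wild-type GFP, culture density cut under 30%, mutant RFP and density less affected; inactive means any of these conditions unmet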; further: one replicate is shown; some compounds called inactive have numbers as strong as hits
Ecoli growth: inhibitors of Escherichia coli growth; OD600, 23 h; hits give low values; OD600 absorbance (test concentration not listed); hit rate 0.21% among 330,000;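 active means OD600 absorbance below the run mean of sample wells minus 3.6 SD, in any replicate, cut at about 0.56 in these data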;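 further: stock transfer was 300 nL into about 60 µL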
ALR H2O2 inh: human ALR oxidase inhibition via reduced H2O2; P55789; purified ALR, DTT oxidation, H2O2 HRP-luminol luminescence; inhibition, % (no concentration beside the values); hit rate 3.8% among 290,000; AID 485317;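 active means mean and each replicate at 75% or more; inconclusive means only one of the two met; inactive means neither met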;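 further: stock transfer was 7.5 nL into about 7.5 µL; 0% = neutral wells and 100% = wells with inactivated enzyme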
Target sequence (P55789 whole entry, looked up): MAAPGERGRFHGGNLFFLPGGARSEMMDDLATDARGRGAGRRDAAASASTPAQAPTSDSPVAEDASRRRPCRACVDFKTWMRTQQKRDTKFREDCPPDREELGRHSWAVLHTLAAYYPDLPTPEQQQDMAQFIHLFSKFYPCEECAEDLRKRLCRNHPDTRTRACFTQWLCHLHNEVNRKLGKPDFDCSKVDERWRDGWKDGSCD
UCH37 DUB inh: human UCH37 deubiquitinating enzyme inhibition | hit rate 0.33% among 330,000 | AID 588478 | inhibition, % (test concentration not listed) | purified proteasome/UCH37, Ub-AMC cleavage fluorescence | Q9Y5K5;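 active means mean of two replicates above 20%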;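 further: 0% = compound-free wells with enzyme and 100% = wells lacking proteasome; stock transfer was 100 nL into about 20 µL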
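Assay system: Proteasome-bound UCH37. Buffer or medium: pH 7.4 Tris-HCl (50 mM) with ovalbumin, ATP-MgCl2, DTT. Incubation: 30 min preincubation with enzyme, 25 min cleavage at room temperature. Measured by: fluorescence, ex 355 nm, em 460 nm. Read-out basis: percent inhibition. Control set: wells without proteasome as full block, compound-free enzyme plus substrate as uninhibited.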
Ecoli rRNA inh OD600: also measured in Ecoli rRNA inh; calls as there; OD600 change, %; measured here: OD600 growth;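 optical density of the mix in the first replicate; 0 = DMSO median and -100 = no signal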
Ecoli rRNA inh RFP: also measured in Ecoli rRNA inh; calls as there; RFP signal change, %; measured here: RFP humanized mutant strains;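 first replicate; 0 = DMSO median and -100 = no signal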
* hit, by the source's call; i = inactive; ? = inconclusive; . = no result given. A portion of the library. The share of hits here may be higher or lower than overall.

SMILES	FGF22 binding	Beta2AR agonist	HNF4A DNA FP	Ecoli rRNA inh	Ecoli rRNA inh OD600	Ecoli rRNA inh RFP	Ecoli growth	ALR H2O2 inh	UCH37 DUB inh
Oc1ccc(/C=N/NC(=S)N2CCOCC2)cc1	i	0	2.6	-2	1	-14	.	99*	.
CN(C)c1cccc(C(=O)Nc2cccc(F)c2)c1	.	-5	1.2	.	.	.	0.69	98*	-23
CCN1/C(=C/c2cc[n+](C)cc2)C=Cc2cc(C)ccc21	.	i	27	.	.	.	0.58	.	8.0
COc1cc(=O)n(C)c2ccccc12	i	6	1.0	7	12	-1.4	0.64	1	-0.2
CCOC(=O)c1cc(-c2ccc(OC(F)F)cc2)nc2nc(SC)[nH]c(=O)c12	i	-16	4.0	-4	7	-0.7	0.74	-22	-38
CCOC(=O)N1CCN(C(=O)C[C@@H]2C[C@@]3(C(=O)OCC)CCC=C3N(CCC3=CCCCC3)C2=O)CC1	i	.	2.5	21	21	4.9	.	.	.
CCCCNC(=O)c1cc2cc(CC)ccc2[nH]1	i	11	1.4	-4	-1	-2.2	0.68	-8	-5.1
COc1ccc(C(=O)O)cc1NC(=S)NC(=O)c1ccc(-c2ccc(Cl)cc2)o1	i	-4	-2.9	12	9	4.6	.	.	11
CCOc1ccc(CN2CCN(Cc3cccn3-c3nccs3)CC2CCO)cc1 (stereo unspecified)	i	-12	0.6	2	-5	-6.4	0.66	-15	1.2
O=C(NCC1CCCO1)c1ccc(CS(=O)(=O)c2c(Cl)cccc2Cl)o1 (stereo unspecified)	i	8	4.5	10	9	3.3	0.76	-15	4.3
COc1cccc(OCCn2cc(C(=O)c3ccco3)c3ccccc32)c1	.	10	-1.8	.	.	.	0.7	0	2.3
COc1ccc(N2CCN(CC(O)COc3cc(C)ccc3C)CC2)cc1 (stereo unspecified)	i	-3	-5.7	-7	-11	-0.7	0.64	9	1.0
CNc1oc(-c2ccccc2)nc1C#N	.	6	-0.6	.	.	.	0.69	13	-236
O=[N+]([O-])c1ccc(S(=O)(=O)NCC2CCCO2)cc1 (stereo unspecified)	i	-2	-1.7	3	11	0.6	0.65	-14	4.6
O=C(O)c1ccc(-n2cccc2/C=C2/NC(=O)N(c3ccccc3)C2=O)cc1	i	-3	-64	-5	-1	0.8	0.7	35	10
CCCN(C(=O)c1ccccc1N)c1c(C)n(C)n(-c2ccccc2)c1=O	.	-6	3.2	.	.	.	0.68	-5	3.5
CC1CC(C)(C)CC2(C1)NC(=O)N(CC(=O)N1CCN(S(=O)(=O)c3cccc(Cl)c3Cl)CC1)C2=O (stereo unspecified)	i	1	-0.2	2	7	-0.8	.	.	.
C(=N\Nc1ccc2ccccc2n1)/c1ccc2c(c1)OCCO2	i	-4	1.6	1	0	0.3	.	-3	.
COc1ccc(NC(=O)c2sc(=O)n(Cc3ccc(S(=O)(=O)N(C)C)cc3)c2C)cc1	i	.	-2.6	5	-3	-5.7	.	.	.
Cc1ccccc1C(=O)Nc1ccnn1C1CCN(C(=O)c2ccoc2)CC1	i	-1	-1.2	-13	-4	1.2	0.7	-1	0.6
F[B-](F)(F)c1cncc2ccccc12	.	6	3.4	0	4	-3.7	.	.	.
C=CCNc1cc(C)oc(=O)c1C(=O)CC	i	0	0.0	10	-6	2.8	0.67	2	1.4
Cc1cc(NC(=O)CSc2nnc(-c3ccccc3)n2C)no1	.	-6	-5.6	7	12	2.0	0.67	-8	3.2
CC(=O)c1nc(N2C(=O)CC(Cc3cc(C)cc(C)c3)C2=O)sc1C (stereo unspecified)	.	-3	-1.2	.	.	.	0.67	9	2.9
CCC(=O)NC(c1cccc([N+](=O)[O-])c1)c1c(OC(C)=O)ccc2ccccc12 (stereo unspecified)	.	1	-1.3	.	.	.	0.71	-12	-0.2

ALR H2O2 inh: entries above that show a hit
SMILES	FGF22 binding	Beta2AR agonist	HNF4A DNA FP	Ecoli rRNA inh	Ecoli rRNA inh OD600	Ecoli rRNA inh RFP	Ecoli growth	ALR H2O2 inh	UCH37 DUB inh
Oc1ccc(/C=N/NC(=S)N2CCOCC2)cc1	i	0	2.6	-2	1	-14	.	99*	.
CN(C)c1cccc(C(=O)Nc2cccc(F)c2)c1	.	-5	1.2	.	.	.	0.69	98*	-23

Full records, quoted from the list.
`COc1ccc(C(=O)O)cc1NC(=S)NC(=O)c1ccc(-c2ccc(Cl)cc2)o1` as listed: FGF22 binding: i; Beta2AR agonist: -4; HNF4A DNA FP: -2.9; Ecoli rRNA inh: 12; Ecoli rRNA inh OD600: 9; Ecoli rRNA inh RFP: 4.6; Ecoli growth: .; ALR H2O2 inh: .; UCH37 DUB inh: 11
`CCC(=O)NC(c1cccc([N+](=O)[O-])c1)c1c(OC(C)=O)ccc2ccccc12` (stereo unspecified) as listed: FGF22 binding: .; Beta2AR agonist: 1; HNF4A DNA FP: -1.3; Ecoli rRNA inh: .; Ecoli rRNA inh OD600: .; Ecoli rRNA inh RFP: .; Ecoli growth: 0.71; ALR H2O2 inh: -12; UCH37 DUB inh: -0.2

Remaining list, next part:
SMILES	FGF22 binding	Beta2AR agonist	HNF4A DNA FP	Ecoli rRNA inh	Ecoli rRNA inh OD600	Ecoli rRNA inh RFP	Ecoli growth	ALR H2O2 inh	UCH37 DUB inh
Cc1sc(NC(=O)CN(C(=O)c2ccccc2F)C2CCCC2)c(C(N)=O)c1C	i	3	0.5	-1	-9	-1.5	0.69	14	1.9
Cc1csc(NC(=O)CSc2nccn2Cc2ccco2)n1	i	-1	2.6	2	5	-1.5	0.66	?	1.6
COc1ccc(CCNC(=O)COC(=O)/C=C/c2ccc(OCC#N)c(OC)c2)cc1OC	i	-5	0.0	-1	2	-0.1	0.67	2	-2.6
COc1cc(/C=C2\SC(=S)N(CC(=O)Nc3ccccn3)C2=O)cc(OC)c1OC	i	3	11	12	-11	27	0.75	.	8.0
COc1cc(/C=C2\SC(=S)N(NC(=O)c3ccncc3)C2=O)ccc1O	i	6	50*	5	0	-2.7	0.69	99*	16
COc1ccc(-c2ccc(CN3C(CC(C)C)C(=O)N(Cc4cn(CCC5OCCCO5)nn4)CCS3(=O)=O)cc2)cc1OC (stereo unspecified)	.	.	-4.0	-3	-2	3.2	.	.	.
COc1cccc(N2C(=O)C(Cc3c[nH]c4ccccc34)NC2=S)c1 (stereo unspecified)	.	5	3.1	.	.	.	0.69	12	0.6
COC(=O)C(NC(=O)c1cccnc1Cl)C(C)C (stereo unspecified)	i	2	-2.8	9	3	-5.7	0.65	-5	3.6
CCCCn1nnnc1C(c1ccccc1)N1CCN(CCN2CCOCC2)CC1 (stereo unspecified)	.	.	1.6	2	10	-5.6	.	.	.
O=C(Cc1ccc(Cl)cc1)NCCS(=O)(=O)N1CCN(c2ccccc2F)CC1	i	-5	0.7	-2	-1	0.2	0.68	0	0.5
COc1ccc(C(C)(C)C)cc1S(=O)(=O)NCC1CCCO1 (stereo unspecified)	i	3	0.0	6	3	-0.8	.	.	.
COc1cccc(NC(=O)Nc2ccc3nc(C)c(C)nc3c2)c1	i	7	1.2	6	12	4.0	.	-6	.
CCCN(CC(=O)NC(=O)NCc1ccccc1)CC(=O)Nc1ccc(F)c(F)c1F	i	.	-1.3	3	6	-0.2	.	.	.
CN(Cc1ccccc1F)C(=O)c1ccccc1Sc1ccccc1C#N	i	0	-4.0	2	4	0.7	0.73	3	1.0
CCC(C)(C(=O)NC1CCCCC1)N(Cc1cccs1)C(=O)CC1NC(=O)NC1=O (stereo unspecified)	.	5	-0.2	.	.	.	0.69	-1	-2.0
Cc1ccc([C@@H]2C[C@H]3[C@@H](CN2S(=O)(=O)c2ccc(C)cc2)C(=O)C[C@@H](c2ccccc2)N3S(=O)(=O)c2ccc(C)cc2)cc1	i	.	1.3	7	11	-2.4	.	.	.
Cc1ccc(-c2cc(C(F)(F)F)nc(SCC(=O)c3cccc([N+](=O)[O-])c3)n2)cc1	.	-8	-1.2	.	.	.	0.71	28	-0.2
CC1(C)Cc2nc(Cl)c(C(N)=O)cc2CO1	i	-1	-0.7	8	11	-2.7	0.66	-3	-1.1
Cc1cc(=O)oc2cc(OC(C)C(=O)Nc3ccc(N4CCOCC4)cc3)ccc12 (stereo unspecified)	.	6	-19	.	.	.	0.76	1	-0.3
COc1ccc(-n2nc(C(N)=O)nc2-c2ccccc2)cc1	i	-2	4.7	5	5	1.6	0.66	-3	1.2
Cn1c(SCC(=O)c2c(N)n(C)c(=O)n(C)c2=O)nnc1-c1ccccc1F	i	-7	0.1	11	13	0.0	0.69	-7	1.0
Cc1noc(C)c1C(=O)OCC(=O)Nc1c(F)cccc1F	i	-1	2.9	17	17	-3.0	0.74	-11	5.9
CCOc1ncccc1C(=O)Nc1ccc(S(=O)(=O)NC2=NCCCCC2)cc1	.	-1	3.6	15	5	2.0	0.7	18	2.9
COc1ccc(-c2nc(C(N)=O)c3[nH]c(=O)n(-c4cccc(C)c4)c3n2)c(OC)c1	i	-7	0.1	0	5	-2.4	0.71	6	-6.1
CC1Cc2ccccc2N1C(=O)CN1CCN(S(=O)(=O)c2cccs2)CC1 (stereo unspecified)	i	4	-3.1	-4	-13	-0.2	0.7	-2	5.2
Next section
SMILES	FGF22 binding	Beta2AR agonist	HNF4A DNA FP	Ecoli rRNA inh	Ecoli rRNA inh OD600	Ecoli rRNA inh RFP	Ecoli growth	ALR H2O2 inh	UCH37 DUB inh
CC(=O)NC(c1ccco1)c1cc(Cl)c2ccccc2c1O (stereo unspecified)	.	0	-0.7	8	7	1.0	0.63	88*	-4.3
O=C(O)C1=NN(c2c(F)c(F)cc(F)c2F)C(=O)CC1	i	-8	0.2	10	8	0.1	0.7	-11	0.5
Cc1nc(N2CCCC2C(=O)O)c2oc3ccccc3c2n1 (stereo unspecified)	.	-1	-1.5	.	.	.	0.71	-20	2.0
c1ccc(OCc2noc(CN3CC[C@@H]4CCCC[C@H]4C3)n2)cc1	i	2	-2.5	-13	-6	-2.9	0.71	-3	1.5
COc1ccc(NC(=O)c2ccc(C(=O)c3ccccc3)o2)cc1	.	-4	1.6	.	.	.	0.68	-6	2.4
CC(OC(=O)Cn1cnc2c1c(=O)n(C)c(=O)n2C)C(=O)NCc1ccccc1 (stereo unspecified)	i	16	5.5	5	2	0.0	0.65	-1	4.9
CN(C(=O)CSc1nc2ccccc2[nH]1)C1CCS(=O)(=O)C1 (stereo unspecified)	i	-1	2.9	15	5	-0.5	0.67	.	0.9
Cc1cc(C)n2nc(SCC(=O)Nc3ccc(S(=O)(=O)N(C)C)cc3)nc2n1	i	6	5.4	.	.	.	0.63	-2	0.9
O=C(CN1C(=O)c2ccccc2S1(=O)=O)Nc1cccc(S(=O)(=O)N2CCOCC2)c1	i	8	-3.6	9	10	5.7	0.72	-1	3.7
Cc1ccc(C)c(C(O)c2ncc(-c3ccccc3)[nH]2)c1 (stereo unspecified)	i	.	0.9	9	6	-0.4	.	.	.
NC(=O)C1CCN(C(=O)c2cc(-c3ccc(Cl)cc3)nc3ccccc23)CC1	i	0	4.9	-4	-24	-1.5	0.71	-1	2.6

High-throughput results deposited in PubChem by several laboratories.
